Assay outcomes from PubChem.
HIV Env fusion = HIV envelope-mediated fusion inhibition | HeLa-JRFL Env/CEM21 cell fusion, luciferase | inhibition, % at 12.3 µM | hit rate 1.1% among 360,000;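 active means mean replicate inhibition score of at least 50 and every replicate individually at or above 50; inconclusive means only one of the two criteria met; inactive means mean below 50 and not all replicates reaching 50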;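 further: 0% = plate neutral controls and 100% = maraviroc near 300 nM; one replicate is shown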
Yeast UUG start = yeast start codon fidelity modulation; S. cerevisiae UUG-firefly luciferase reporter, luminescence/redox ratio; hit rate 0.13% among 350,000; activity score, % at 18.7 µM; AID 602363;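 active means replicate mean at a twofold rise or more, about +100% in these data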;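 further: firefly luciferase made from a UUG start codon reports start codon fidelity; reporter light over untreated wells divided by growth signal over untreated wells; some hits fall short of that in this replicate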
An asterisk follows results filed as active; ? = inconclusive; [ ] = another dose, or the depositor's remark.

Screens in order – HIV Env fusion, Yeast UUG start
C[C@H](CO)N1C[C@H](C)[C@@H](CN(C)C(=O)NC2CCCCC2)OCCCC[C@H](C)Oc2ccc(NC(=O)Cc3ccccc3)cc2C1=O
    -6.7[16.7 µM], -8.4
COc1ccccc1S(=O)(=O)N[C@H]1C=C[C@@H](CC(=O)NCc2cccc(F)c2)O[C@H]1CO
    -1.8[16.7 µM], -6.0
COc1ccc(S(=O)(=O)Nc2ccc3c(c2)C(=O)N([C@H](C)CO)C[C@H](C)[C@H](CN(C)S(C)(=O)=O)O3)cc1
    8.3[16.7 µM], -3.8
C[C@@H]1CCCCO[C@@H](CN(C)Cc2ccc(C(=O)O)cc2)[C@H](C)CN([C@@H](C)CO)C(=O)c2cc(NC(=O)Nc3ccc4c(c3)OCO4)ccc2O1
    20.5[16.7 µM], 2.1
C[C@@H]1CCCCO[C@@H](CN(C)C(=O)Nc2ccc(C(F)(F)F)cc2)[C@H](C)CN([C@@H](C)CO)C(=O)c2cc(NC(=O)C3CCCCC3)ccc2O1
    3.1[16.7 µM], -14.6
CC(C)CC#Cc1ccc2c(c1)O[C@@H](CN(C)C(=O)Cc1ccccn1)[C@@H](C)CN([C@H](C)CO)S2(=O)=O
    6.3[16.7 µM], -4.2
COc1ccc(CN(C)C[C@H]2OCCCC[C@@H](C)Oc3ccc(NC(=O)Nc4ccccc4)cc3C(=O)N([C@@H](C)CO)C[C@H]2C)cc1
    -6.7[16.7 µM], 14.2
C[C@@H]1CN([C@@H](C)CO)C(=O)c2cc(NC(=O)NC3CCCCC3)ccc2O[C@@H](C)CCCCO[C@H]1CN(C)C(=O)Cc1ccccc1
    20.2[16.7 µM], 5.2
Cc1cc(C(=O)Nc2cccc3c2O[C@@H](CN(C)C(=O)NC2CCCCC2)[C@@H](C)CN([C@@H](C)CO)C3=O)n(C)n1
    11.5[16.7 µM], 5.4
C[C@@H]1CCCCO[C@H](CN(C)Cc2ccncc2)[C@H](C)CN([C@@H](C)CO)C(=O)c2cc(NC(=O)Nc3ccc4c(c3)OCO4)ccc2O1
    -12.7[16.7 µM], -20.4
O=C(C[C@@H]1C=C[C@H](NC(=O)Nc2cc(F)ccc2F)[C@H](CO)O1)Nc1ccccc1
    -7.7[16.7 µM], 4.4
C[C@H](CO)N1C[C@H](C)[C@H](CN(C)Cc2ccccc2)Oc2cc(-c3ccncc3)ccc2S1(=O)=O
    0.8[16.7 µM], -4.8
C[C@H](CO)N1C[C@H](C)[C@H](CN(C)Cc2ccncc2)Oc2ccc(NC(=O)NC3CCCCC3)cc2C1=O
    7.4[16.7 µM], -6.5
COc1ccccc1CNC(=O)C[C@@H]1CC[C@@H](NC(=O)CN(C)C)[C@H](CO)O1
    -3.5[16.7 µM], -13.0
CN1C(=O)c2cc(NC(=O)c3ccc(C(F)(F)F)cc3)ccc2OC[C@@H]2O[C@@H](CC(=O)NCc3ccc4c(c3)OCO4)CC[C@H]21
    -64.1[16.7 µM], 4.6
C[C@@H]1CN([C@H](C)CO)C(=O)Cc2cc(NS(C)(=O)=O)ccc2O[C@H]1CN(C)Cc1ccccc1
    -6.4[16.7 µM], 11.6
C[C@@H]1CN([C@@H](C)CO)C(=O)Cc2cc(NC(=O)c3ccncc3)ccc2O[C@@H]1CN(C)Cc1ccncc1
    -10.1[16.7 µM], -0.4
O=C(C[C@@H]1CC[C@@H](NS(=O)(=O)c2ccccc2F)[C@@H](CO)O1)NCCCN1CCOCC1
    -0.9[16.7 µM], -0.8
O=C(N[C@H]1CC[C@H](CCNS(=O)(=O)c2ccc(F)cc2)O[C@H]1CO)C1CCOCC1
    3.3[16.7 µM], -1.5
C[C@H](CO)N1C[C@H](C)[C@H](CN(C)Cc2ccc(Oc3ccccc3)cc2)Oc2ncc(-c3cccnc3)cc2C1=O
    12.9[16.7 µM], -5.9
C[C@@H]1CN([C@H](C)CO)C(=O)c2cc(NS(C)(=O)=O)ccc2O[C@@H](C)CCCCO[C@@H]1CN(C)S(=O)(=O)c1cn(C)cn1
    33.1[16.7 µM], 13.4
O=C(C[C@@H]1CC[C@H](NC(=O)CN2CCOCC2)[C@H](CO)O1)NCCc1ccccc1
    8.3[16.7 µM], -12.1
Cc1noc(C)c1NC(=O)Nc1ccc2c(c1)C(=O)N([C@H](C)CO)C[C@@H](C)[C@@H](CN(C)Cc1ccc(C(F)(F)F)cc1)OCCCC[C@H](C)O2
    -1.6[16.7 µM], 9.0
O=C(NCC[C@H]1CC[C@@H](NC(=O)c2ccc3c(c2)OCO3)[C@@H](CO)O1)Nc1cc(F)ccc1F
    -11.7[16.7 µM], -0.3
C[C@@H]1CN([C@@H](C)CO)C(=O)Cc2cc(NS(=O)(=O)c3ccc(Cl)cc3)ccc2O[C@@H]1CN(C)CC1CCCCC1
    -5.9[16.7 µM], 0.1
C[C@@H]1CN([C@H](C)CO)C(=O)c2cc(N(C)C)ccc2O[C@@H](C)CCCCO[C@H]1CN(C)C(=O)c1ccccc1
    -6.6[16.7 µM], 7.8
C[C@@H]1CN([C@H](C)CO)C(=O)c2cc(-c3cncnc3)cnc2O[C@@H]1CN(C)C(=O)Nc1ccc2c(c1)OCO2
    -9.8[16.7 µM], -1.1
CNC[C@H]1Oc2c(NC(=O)c3ccc(-c4nccs4)cc3)cccc2C(=O)N([C@@H](C)CO)C[C@H]1C
    -12.3[16.7 µM], 4.2
COc1cccc(S(=O)(=O)Nc2ccc3c(c2)OC[C@@H](C)NC[C@H](C)[C@H](OC)CN(C)C3=O)c1
    8.5[16.7 µM], 17.7
C[C@@H]1CN([C@H](C)CO)C(=O)Cc2cc(NC(=O)Cc3ccccc3)ccc2O[C@@H]1CN(C)Cc1ccc(Oc2ccccc2)cc1
    -45.4[16.7 µM], 12.9

In the list so far, 2 have two or more sulfur atoms.
Screens in order – HIV Env fusion, Yeast UUG start
COc1ccc(S(=O)(=O)Nc2ccc3c(c2)C(=O)N([C@H](C)CO)C[C@H](C)[C@H](CN(C)S(C)(=O)=O)O3)cc1
    8.3[16.7 µM], -3.8
C[C@@H]1CN([C@H](C)CO)C(=O)c2cc(NS(C)(=O)=O)ccc2O[C@@H](C)CCCCO[C@@H]1CN(C)S(=O)(=O)c1cn(C)cn1
    33.1[16.7 µM], 13.4

Carrying on.
Screens in order – HIV Env fusion, Yeast UUG start
O=C(Cc1ccncc1)NCC[C@@H]1CC[C@H](NC(=O)C2CCCCC2)[C@H](CO)O1
    0.3[16.7 µM], 53.9
COc1ccc(-c2ccc3c(c2)O[C@@H](CN(C)C(=O)Nc2ccccc2F)[C@H](C)CN([C@@H](C)CO)S3(=O)=O)cc1
    -17.6[16.7 µM], -10.8
CCC(=O)N(C)C[C@H]1Oc2cc(C#CC3CCCCC3)ccc2S(=O)(=O)N([C@H](C)CO)C[C@@H]1C
    -7.8[16.7 µM], -1.2
CC(C)CC#Cc1ccc2c(c1)O[C@H](CN(C)C(=O)Nc1ccccc1F)[C@H](C)CN([C@@H](C)CO)S2(=O)=O
    -1.9[16.7 µM], -3.5
O=C(Nc1ccccc1)Nc1ccc2c(c1)[C@@H]1C[C@@H](CC(=O)N3CCOCC3)O[C@@H](CO)[C@@H]1O2
    6.9[16.7 µM], -5.0
COC(=O)C[C@@H]1CC[C@H]2[C@@H](COc3ccc(NC(=O)c4cccc(OC)c4)cc3C(=O)N2C)O1
    16.3[16.7 µM], 4.4
CC(C)C#Cc1cnc2c(c1)C(=O)N([C@H](C)CO)C[C@H](C)[C@@H](CN(C)C(=O)CCN1CCCCC1)O2
    -1.2[16.7 µM], 25.8
COc1ccccc1S(=O)(=O)N[C@@H]1CC[C@@H](CC(=O)N2CCOCC2)O[C@H]1CO
    2.3[16.7 µM], -2.8
C[C@H](CO)N1C[C@H](C)[C@H](CN(C)Cc2ccc(-c3ccccc3)cc2)Oc2ccc(NC(=O)Nc3cccc4ccccc34)cc2CC1=O
    9.8[16.7 µM], -3.5
C[C@H](CO)N1C[C@H](C)[C@H](CN(C)S(=O)(=O)c2cn(C)cn2)Oc2ccc(NC(=O)C3CCCCC3)cc2CC1=O
    -12.4[16.7 µM], -14.1
O=C(C[C@@H]1CC[C@@H](NC(=O)C2CCOCC2)[C@@H](CO)O1)NCC1CCCCC1
    2.0[16.7 µM], -15.1
C[C@@H]1CN([C@H](C)CO)C(=O)c2cc(NS(=O)(=O)c3ccccc3)ccc2O[C@H]1CN(C)Cc1ccccc1
    -4.7[16.7 µM], 5.3
C[C@@H]1CCCCO[C@H](CN(C)Cc2ccc(C(F)(F)F)cc2)[C@@H](C)CN([C@H](C)CO)C(=O)c2cc(NC(=O)C3CCCCC3)ccc2O1
    ?, -2.9
C[C@@H]1CCCCO[C@@H](CN(C)C(=O)Nc2ccc3c(c2)OCO3)[C@H](C)CN([C@@H](C)CO)C(=O)c2cc(NC(=O)c3ccccc3)ccc2O1
    49.7[16.7 µM], 7.0
C[C@@H]1CN([C@H](C)CO)C(=O)c2cccc(N(C)C)c2O[C@H]1CN(C)Cc1ccc2c(c1)OCO2
    -25.3[16.7 µM], -0.6
C[C@@H]1CN([C@@H](C)CO)C(=O)Cc2cc(NC(=O)c3ccncc3)ccc2O[C@H]1CN(C)S(=O)(=O)c1cn(C)cn1
    -15.9[16.7 µM], 0.0
O=C(C[C@@H]1C[C@@H]2c3cc(NC(=O)NC4CCCC4)ccc3O[C@@H]2[C@@H](CO)O1)NCc1cccc(F)c1
    9.5[16.7 µM], -6.8
C[C@@H]1CN([C@H](C)CO)S(=O)(=O)c2ccc(C3=CCCC3)cc2O[C@H]1CN(C)Cc1cncnc1
    21.8[16.7 µM], -5.4
CCCc1cn(CC[C@@H]2CC[C@@H](NS(=O)(=O)c3ccccc3Cl)[C@@H](CO)O2)nn1
    8.9[16.7 µM], -13.1
C[C@H]1CCCCO[C@H](CN(C)S(C)(=O)=O)[C@@H](C)CN([C@@H](C)CO)C(=O)c2cc(NC(=O)c3ccccc3)ccc2O1
    0.7[16.7 µM], 5.1
Cc1noc(C)c1NC(=O)N(C)C[C@H]1Oc2ncc(C3=CCCC3)cc2C(=O)N([C@H](C)CO)C[C@H]1C
    -23.6[16.7 µM], 10.4
CCCC#Cc1cnc2c(c1)C(=O)N([C@H](C)CO)C[C@H](C)[C@@H](CN(C)C(=O)Cc1ccccc1)O2
    0.4[16.7 µM], 51.6
C[C@@H]1CN([C@H](C)CO)C(=O)Cc2cc(NS(=O)(=O)c3ccc(Cl)cc3)ccc2O[C@@H]1CN(C)CC1CCCCC1
    -14.2[16.7 µM], 1.0
C[C@@H]1CCCCO[C@H](CN(C)Cc2ccc(C(F)(F)F)cc2)[C@H](C)CN([C@H](C)CO)C(=O)c2cc(NC(=O)CCCN(C)C)ccc2O1
    -11.8[16.7 µM], 6.9
COc1ccc(NC(=O)N(C)C[C@@H]2Oc3ccc(NC(=O)Nc4c(C)noc4C)cc3C(=O)N([C@@H](C)CO)C[C@H]2C)cc1
    6.9[16.7 µM], -27.7
C[C@@H]1CN([C@H](C)CO)C(=O)Cc2cc(NC(=O)CCN3CCOCC3)ccc2O[C@@H]1CN(C)Cc1ccccc1
    -18.5[16.7 µM], -5.5
C[C@@H]1CCCCO[C@H](CN(C)Cc2ccc(Cl)c(Cl)c2)[C@H](C)CN([C@@H](C)CO)C(=O)c2cc(NS(=O)(=O)c3cn(C)cn3)ccc2O1
    6.6[16.7 µM], 6.9
CCCN1C[C@H](C)[C@@H](OC)CN(C)C(=O)c2cc(NC(=O)C3CCOCC3)ccc2OC[C@H]1C
    0.3[16.7 µM], 10.5
C[C@H]1CN([C@@H](C)CO)C(=O)c2cccc(NC(=O)c3nc4ccccc4s3)c2O[C@H]1CN(C)CC1CC1
    -8.0[16.7 µM], 3.8
CCCNC(=O)C[C@@H]1CC[C@@H]2[C@H](COC[C@H](O)CN2C(=O)c2ccc(F)cc2)O1
    22.7[16.7 µM], -9.3
CCC(=O)N(C)C[C@H]1Oc2cc(C#CC3CCCC3)ccc2S(=O)(=O)N([C@@H](C)CO)C[C@H]1C
    -9.9[16.7 µM], 8.8
COc1ccc(CN(C)C[C@H]2Oc3ccc(NC(=O)CCC(F)(F)F)cc3CC(=O)N([C@H](C)CO)C[C@H]2C)cc1
    5.4[16.7 µM], 7.9
CC(C)NC(=O)N(C)C[C@H]1Oc2c(NC(=O)C3CCOCC3)cccc2C(=O)N([C@H](C)CO)C[C@H]1C
    4.4[16.7 µM], -8.2
CC(C)C#Cc1ccc([C@H]2[C@@H](C#N)N(C(=O)CN(C)C)[C@H]2CO)cc1
    -6.2[16.7 µM], 2.6
C[C@H](CO)N1C[C@H](C)[C@H](CN(C)Cc2ccccn2)Oc2cc(C#C[C@@H](C)O)ccc2S1(=O)=O
    2.0[16.7 µM], -21.7
C[C@@H]1CCCCO[C@@H](CN(C)Cc2ccccc2)[C@H](C)CN([C@@H](C)CO)C(=O)c2cc(NC(=O)CCC(F)(F)F)ccc2O1
    -8.4[16.7 µM], 7.5
C[C@H](CO)N1C[C@H](C)[C@H](CN(C)C(=O)Nc2ccc(F)cc2)Oc2ncc(C#CC(C)(C)O)cc2C1=O
    -7.2[16.7 µM], 12.6
C[C@H]1CN([C@@H](C)CO)C(=O)Cc2cc(NC(=O)Cc3cn(C)c4ccccc34)ccc2O[C@H]1CN(C)Cc1ccc(C(=O)Nc2ccccc2N)cc1
    -50.2[16.7 µM], 10.7
CC(C)C#Cc1ccc2c(c1)O[C@H](CN(C)Cc1cncnc1)[C@H](C)CN([C@H](C)CO)S2(=O)=O
    -7.6[16.7 µM], -8.7
C[C@H](CO)N1C[C@H](C)[C@H](CN(C)C(=O)c2ccc3c(c2)OCO3)Oc2cc(-c3ccncc3)ccc2S1(=O)=O
    -8.9[16.7 µM], 0.2

Some of the compounds tested; the hit share may differ from the screen's.
